HTT promoter inh – inhibits huntingtin promoter activity; HEK293 HTT promoter firefly luciferase reporter (activity 0% = vehicle and -100% = no light), 24 h; Potency, µM (series often up to 57.5 µM), for the others: at the highest dose activity change, negative = inhibition, usual class: inhibitors; 48,000 compounds, 0.93% hits; AID 1508623; active = well fitted inhibition curve with a large enough effect; inconclusive = small, poorly fitted or top-dose-only effect; inactive = no such curve, though single readings can be large or run the other way; note: nearly all actives have a fitted effect of over 50% in size
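Firefly luciferase readout (Dual-Glo, 10 min RT) after 24 h, 37 °C compound exposure (final up to 57.5 uM) of HEK293 reporter cells cultured 24 h beforehand; PTC124 at 50 uM final as control inhibitor; activity scaled vehicle 0%, zero RLU -100%.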
PMP22 txn – modulates PMP22 transcription in S16 Schwann cells. S16 Pmp22-F2sN Schwann cells (luciferase reporters placed in the Pmp22 gene), FLuc/NLuc coincidence luminescence, 24 h. Potency, µM (highest dose often 57.5 µM), for the others: at the highest dose activity change, negative = inhibition, actives largely listed as inhibitors. 43,000 compounds, 2% hits. AID 1508649; active = clear falling dose curves in both reporters; inconclusive = both reporters move, but less clearly or upward; inactive = either reporter flat; the % is the NLuc reporter signal; note: % is set by controls: 0 for no effect and ±100 for the full control effect; some results filed as inactive show a strong effect at the top dose
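Schwann cells carrying the coincidence reporter were exposed to library compounds for 24 h at 37C, then lysed and read for FLuc and, after quenching, NLuc luminescence on a CCD imager.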
Starred values were filed as active, the others as inactive; ? = inconclusive; nt = no result given; [ ] = remark or other dose. Potency is the fitted concentration of half-maximal effect.

Start of the data: the first 7 entries, ahead of the listing:
nr	smiles	HTT promoter inh	PMP22 txn
1	CCC(=O)C1=C(c2ccc(F)cc2)N(C(=O)CC)n2c(nnc2C2CCCCC2)S1	-18%	?
2	COc1ccc(C2C=C(c3ccccc3)Nc3nc(NC(=O)/C=C/c4ccc(Cl)cc4)nn32)cc1 (stereo not drawn)	-20%	?
3	CC1CCCN(C(=O)c2cc3c(=O)n(C)c4ccccc4c3s2)C1 (stereo not drawn)	5%	-18%
4	CC(C)(C)NC[C@H](O)COc1cccc2c1CCCC2=O	-4%	nt
5	CN(Cc1ccccc1)C(=O)CSc1c2c(nc3ccc(Cl)cc13)CCCC2	?	?
6	Cc1ccc(CN2C(=O)C(=O)c3cc(Br)cc(C)c32)cc1	?	?
7	CCOC(=O)c1ccccc1NC(=O)N(Cc1ccco1)C1CCN(C(C)=O)CC1	-14%	0%

This part in full, previewed entries included:
nr	smiles	HTT promoter inh	PMP22 txn
1	CCC(=O)C1=C(c2ccc(F)cc2)N(C(=O)CC)n2c(nnc2C2CCCCC2)S1	-18%	?
2	COc1ccc(C2C=C(c3ccccc3)Nc3nc(NC(=O)/C=C/c4ccc(Cl)cc4)nn32)cc1 (stereo not drawn)	-20%	?
3	CC1CCCN(C(=O)c2cc3c(=O)n(C)c4ccccc4c3s2)C1 (stereo not drawn)	5%	-18%
4	CC(C)(C)NC[C@H](O)COc1cccc2c1CCCC2=O	-4%	nt
5	CN(Cc1ccccc1)C(=O)CSc1c2c(nc3ccc(Cl)cc13)CCCC2	?	?
6	Cc1ccc(CN2C(=O)C(=O)c3cc(Br)cc(C)c32)cc1	?	?
7	CCOC(=O)c1ccccc1NC(=O)N(Cc1ccco1)C1CCN(C(C)=O)CC1	-14%	0%
8	CCOC(=O)c1c(C)[nH]c(C)c1S(=O)(=O)N1CCC(C(=O)NCc2ccc(OC)cc2)CC1	-4%	15%
9	CCn1cc2nc(SCC(=O)Nc3ccc(C)cc3C)n(Cc3ccc(C)cc3)c(=O)c2n1	?	?
10	CCCc1cnc2c(c1SCC(=O)Nc1c(C)cc(C)cc1C)c(=O)n(C)c(=O)n2C	-11%	43%
11	Cc1cccc(NC(=O)CCNS(=O)(=O)c2ccc3c(c2)CCCC(=O)N3)c1C	-11%	-15%
12	COc1ccc(C(=O)NCc2ccc3c(c2)CCN3C(C)=O)c(OC)c1	-23%	?
13	COc1ccc(NC(=O)CSc2cn(CCNC(=O)c3ccc(OC)cc3)c3ccccc23)cc1	?	?
14	CCCCCC[C@@H](CCC)C(=O)O	-7%	nt
15	CC(=O)c1c(C)oc2ccc(N(C(=O)Oc3ccccc3)S(=O)(=O)c3ccc(Cl)cc3)cc12	-7%	-8%
16	COc1ccc(-c2cc3c(=O)n(CC(=O)Nc4cc(C)ccc4C)ccn3n2)cc1	16%	-49%
17	O=C(CSc1nc2c([nH]c3ccccc32)c(=O)n1-c1cccc(Cl)c1)N1CCOCC1	?	?
18	CC(C)c1ccc(Nc2c(-c3ccc(N(C)C)cc3)nc3cnccn23)cc1	9%	-17%
19	COc1cccc(CNC(=O)C2CCCN(S(=O)(=O)c3ccc4c(ccn4C)c3)C2)c1OC (stereo not drawn)	-20%	-8%
20	CCc1ccc(N2C(=O)CSC23C(=O)N(Cc2ccc(C)cc2)c2ccccc23)cc1 (stereo not drawn)	-20%	?

The list goes on; the last 2 above are carried over.
nr	smiles	HTT promoter inh	PMP22 txn
19	COc1cccc(CNC(=O)C2CCCN(S(=O)(=O)c3ccc4c(ccn4C)c3)C2)c1OC (stereo not drawn)	-20%	-8%
20	CCc1ccc(N2C(=O)CSC23C(=O)N(Cc2ccc(C)cc2)c2ccccc23)cc1 (stereo not drawn)	-20%	?
21	NC(CS)C(=O)O (stereo not drawn)	5%	nt
22	COC(=O)c1cc2oc(C)cc2n1Cc1c(C)cc(C)cc1C	-1%	?
23	CCc1cc2c(cc3c(=O)n(CC(=O)NCc4cccc(Cl)c4)nc(CC)n32)s1	8%	-38%
24	COC(=O)C1=C(c2ccccc2)c2ccccc2S(=O)(=O)N1CC(=O)Nc1cc(C)ccc1C	-20%	?
25	N#Cc1ccc(CSc2nc3c(c(=O)[nH]2)CCCC3)cc1	?	-6%
26	CC1CCN(S(=O)(=O)c2cc(C(=O)NCc3ccc(F)cc3)n(C)c2)CC1	-26%	-1%
27	COc1ccc(C(C(=O)NCc2ccccc2)N(C(=O)Cn2nnc3ccccc32)c2cccc(OC)c2)cc1 (stereo not drawn)	-7%	?
28	Cc1ccc2ccc(Cl)cc2n1	9%	nt
29	Cc1ccc(Nc2ncc(C(=O)N3CCN(c4ccc(F)cc4)CC3)c3ccccc23)cc1Cl	-28%	-26%
30	COc1ccc(OC)c(CCNC(=O)CCn2c(=O)c3cccn3c3ccc(F)cc32)c1	0%	-18%
31	COc1ccc(NC(=O)c2cc3cc(C)ccc3[nH]2)cc1	20%	12%
32	CCOc1ccc(NC(=O)c2c(NC(=O)c3ccccc3F)sc3c2CCC3)cc1	-17%[11.5 µM]	-29%
33	CCCN1CCc2nc(N3CCN(C)CC3)ncc2C1	-19%	11%
34	Clc1ccc2nc(-c3cccs3)c(Nc3ccc4c(c3)OCCO4)n2c1	2%	7%
35	Cc1nnc(NC(=O)CSCc2cc(=O)c3cc(Cl)ccc3[nH]2)s1	7%	-1%
36	Cc1cc(-c2ccc(S(=O)(=O)Nc3ccccc3F)s2)on1	-35%	?
37	COC(=O)c1ccc(NC(=O)CCc2c(C)nc3c(c2C)c(=O)n(C)c(=O)n3C)cc1	-9%	-6%
38	CCc1ccc(NC(=O)c2ccc3c(c2)N(Cc2ccc(C)cc2)CCS3)cc1	19%	-12%

Shown with one line to a screen: two of the compounds above
29) Cc1ccc(Nc2ncc(C(=O)N3CCN(c4ccc(F)cc4)CC3)c3ccccc23)cc1Cl
30) COc1ccc(OC)c(CCNC(=O)CCn2c(=O)c3cccn3c3ccc(F)cc32)c1
screen / no. | 29 | 30
HTT promoter inh | -28% | 0%
PMP22 txn | -26% | -18%

Compounds 23–27 of the list above:
nr	smiles	HTT promoter inh	PMP22 txn
23	CCc1cc2c(cc3c(=O)n(CC(=O)NCc4cccc(Cl)c4)nc(CC)n32)s1	8%	-38%
24	COC(=O)C1=C(c2ccccc2)c2ccccc2S(=O)(=O)N1CC(=O)Nc1cc(C)ccc1C	-20%	?
25	N#Cc1ccc(CSc2nc3c(c(=O)[nH]2)CCCC3)cc1	?	-6%
26	CC1CCN(S(=O)(=O)c2cc(C(=O)NCc3ccc(F)cc3)n(C)c2)CC1	-26%	-1%
27	COc1ccc(C(C(=O)NCc2ccccc2)N(C(=O)Cn2nnc3ccccc32)c2cccc(OC)c2)cc1 (stereo not drawn)	-7%	?

From PubChem
